# VACV mCherry inh = qHTS for Stage-Specific Inhibitors of Vaccinia Orthopoxvirus: mCherry Reporter Primary qHTS | Potency, µM (series often up to 36.5 µM), inactives show at the highest dose activity change, negative = inhibition, most hits filed as inhibitors | 0.63% of 310,000 active | AID 720579, 2013 | Vaccinia virus mCherry reporter infection, fluorescence; about a quarter of the inactives have no number; active = well fitted inhibition curve with a large enough effect; inconclusive = small, poorly fitted or top-dose-only effect; inactive = no such curve, though single readings can be large or run the other way; tested in A549 cells; also: nearly all actives have a fitted effect of over 35% in size; inactives centre near -10
# VACV Venus inh = qHTS for Stage-Specific Inhibitors of Vaccinia Orthopoxvirus: Venus Reporter Primary qHTS | Vaccinia virus Venus reporter expression, fluorescence | Potency, µM (top dose mostly 36.5 µM), inactives show at the highest dose activity change, negative = inhibition, hits mostly inhibitors | 0.46% of 330,000 active; active means well fitted inhibition curve with a large enough effect; inconclusive means small, poorly fitted or top-dose-only effect; inactive means no such curve, though single readings can be large or run the other way; tested in A549 cells; also: nearly all actives have a fitted effect of over 30% in size; inactives centre near -10
# * marks the source's active call; other numbers are inactive results; i = inactive; ? = inconclusive; . = not tested or not shown; & = joins results of further samples; ! = a repeat was not active; [ ] = remark or other dose. % is scaled to controls: 0 for no effect and ±100 for the full control effect; potency is read from the fitted curve at half-maximal effect. An unsorted share of the library; about 0.88% have a hit in one of these screens.
structure,VACV mCherry inh,VACV Venus inh
OCCCNc1ncnc2sc(-c3ccccc3)cc12,-14%,-24%
Cc1ccc2oc(-c3ccc(Cl)c(NC(=O)c4ccc(OC(C)C)cc4)c3)nc2c1,-19%,-21%
O=C(Nc1ccccc1)OCC1COC(c2ccccc2)(c2ccccc2)O1 (centres undefined),-2%,-10%
COC(=O)c1ccc(NC(=O)CCS(=O)(=O)c2ccc3c(c2)NC(=O)C(C)S3)cc1 (centres undefined),i[7.34 µM],-19%[7.34 µM]
CNS(=O)(=O)c1cn(CC(=O)N2CCN(c3ccc(OC)cc3)CC2)cc1S(=O)(=O)NC,-8%,-6%
COc1ccc(CCNC(=O)Cn2cc(C(=O)c3ccccc3)c(=O)c3ccc(C)nc32)cc1OC,-18%,-7%
Cc1c(NC(=O)C(C)OC(=O)COc2ccccc2)c(=O)n(-c2ccccc2)n1C (centres undefined),6%,2%
CN1C(=O)[C@@](O)(CC(=O)c2ccccc2)c2cc(Br)ccc21,?,2%
O=C(NC1CCCCC1)C(c1ccc(F)cc1)N(Cc1ccco1)C(=O)Cn1nnc2ccccc21 (centres undefined),i,-4%
CCn1cc(CNC(=O)c2ccc3nc(Cc4ccc(OC)cc4)oc3c2)cn1,-24%,-24%
Cc1ccccc1N1C(=O)CC2(CCCC2)CC1=O,i,-7%
Cc1ccc(NC(=O)CCC(C(=O)O)N2C(=O)c3ccccc3C2=O)cc1 (centres undefined),.,-16%
COc1cc2ccccc2cc1C(=O)Nc1ccc(NC(=O)c2cccs2)cc1,-14%,0%
COc1cccc(Oc2cncnc2-c2ccc(OC)cc2O)c1,-17%,-9%
Cc1ccccc1-n1c(SCc2ccccn2)nc2n[nH]c(C)c2c1=N,.,?
CCN(CC)S(=O)(=O)c1ccc(=O)n(CC(=O)N2Cc3ccccc3CC2C(N)=O)c1 (centres undefined),i,-13%
CCCC[C@@H]1CNC(=O)C(=O)N1CCCCC1CCCCC1,2%,-9%
Cc1cc(=O)oc2cc(OCC(=O)OCC(=O)Nc3ccccc3C(C)C)ccc12,-15%,-8%
COc1ccc(NC(=O)C[C@H]2C(=O)N(C3CCCCC3)C[C@@H]2c2ccc(OC)cc2)cc1,-12%,-23%
COc1cc(CN2CCCCC2)ccc1OCc1ccccc1,i,-11%

# A few values from the results shown.
# Cc1ccccc1N1C(=O)CC2(CCCC2)CC1=O in VACV Venus inh shows -7%
# COc1cc2ccccc2cc1C(=O)Nc1ccc(NC(=O)c2cccs2)cc1 in VACV mCherry inh shows -14%
# CCN(CC)S(=O)(=O)c1ccc(=O)n(CC(=O)N2Cc3ccccc3CC2C(N)=O)c1 (centres undefined) in VACV Venus inh shows -13%
# COc1ccc(NC(=O)C[C@H]2C(=O)N(C3CCCCC3)C[C@@H]2c2ccc(OC)cc2)cc1 in VACV mCherry inh shows -12%
# Cc1ccc2oc(-c3ccc(Cl)c(NC(=O)c4ccc(OC(C)C)cc4)c3)nc2c1 in VACV Venus inh shows -21%

# (list continues)
structure,VACV mCherry inh,VACV Venus inh
Nc1cccnc1Sc1ccc([N+](=O)[O-])cn1,i,3%
Cc1csc2nc(NC(=O)c3ccccc3)sc(=O)c12,-19%,-11%
NC(=O)c1nsc(C(=O)N(c2ccccc2)C(C(=O)NC2CCCC2)c2ccc3ncccc3c2)c1N (centres undefined),10%,9%
O=C1NC(=O)C2(Cc3cc([N+](=O)[O-])ccc3N3CCN(C(=O)c4ccccc4)CC32)C(=O)N1 (centres undefined),0%,-2%
O=C(CSc1nc2[nH]ncc2c(=O)[nH]1)Nc1ccccc1,i,-12%
COc1ccc(Br)cc1C(=O)Nc1ccc(NC(=O)c2ccco2)cc1,.,-19%
CCCCOc1ccc(Cc2cnc(N)nc2N)cc1,i,-17%
CN(C)S(=O)(=O)c1ccc(NS(=O)(=O)/C=C/c2ccccc2)cc1,-2%,-12%
OC(CN1CCCCC1)CN(c1ccccc1)c1ccccc1 (centres undefined),.,-24%
CCOC(=O)c1sc(NC(=O)CN2C(=O)C3CC=CCC3C2=O)nc1C (centres undefined),i,-9%
Cc1ccc(-n2nc(C(=O)O)cc2-c2ccc(Cl)cc2)cc1,2%,-1%
O=C(/C=C/c1ccc(Cl)cc1)N1CCN(CCN2C(=O)c3cccc4cccc(c34)C2=O)CC1,-10%,-3%
Cc1cccc(NC(=O)CCNS(=O)(=O)c2cccc3nonc23)c1C,i,-19%
COc1ccc(CCNC(=O)CCNS(=O)(=O)c2cccc3nsnc23)cc1OC,-14%,-14%
Cc1nn2c(-c3ccco3)ccnc2c1-c1ccc(Cl)cc1,-20%,-19%
CCOc1ccccc1Nc1nnc(SCc2nnc(-c3cc(OC)c(OC)c(OC)c3)o2)s1,?,?
Cc1cc(OCCCCCn2ccnc2)cc(C)c1Cl,i,-19%
O=P(Nc1cccc(Cl)c1)(Oc1ccccc1)Oc1ccccc1,i,-16%
COc1ccc(C2CC(=O)C=C(NCCC(C)C)C2)cc1 (centres undefined),.,5%
COc1cccc2cc(-c3n[nH]c(=S)n3C)oc12,i,-14%

# A draw from above in order of number of heavy atoms, low to high:
structure,VACV mCherry inh,VACV Venus inh
CCCCOc1ccc(Cc2cnc(N)nc2N)cc1,i,-17%
COc1ccc(C2CC(=O)C=C(NCCC(C)C)C2)cc1 (centres undefined),.,5%
O=C(/C=C/c1ccc(Cl)cc1)N1CCN(CCN2C(=O)c3cccc4cccc(c34)C2=O)CC1,-10%,-3%

# (list continues)
structure,VACV mCherry inh,VACV Venus inh
COc1cccc(C(=O)NCc2nc(-c3ccccc3)no2)c1OC,i,0%
O=C(O)CSc1nc(-c2ccccc2)cc(=O)[nH]1,i,-4%
COc1cc(S(=O)(=O)N(Cc2cccs2)C2CC2)ccc1-n1cnnn1,-19%,-11%
COCCN1C[C@@H](CO)O[C@@H](n2cnc3c(N4CCCC4)ncnc32)C1,-10%,4%
O=C(NCc1ccco1)Nc1cccc([N+](=O)[O-])c1,-8%,3%
N#Cc1c(NC(=O)c2ccc(N3CCOCC3)c([N+](=O)[O-])c2)sc2c1CCCC2,i,0%
COc1cc2ccccc2cc1C(=O)N1CC(C)OC(C)C1 (centres undefined),i,-7%
Cc1c(Br)cc(C(=O)NCCCN2CCOCC2)c(C)c1C,.,-4%
COc1cc(C2C3=C(COC3=O)Oc3cc4c(cc32)OCO4)ccc1O (centres undefined),?,?
CCOc1ccc(CNC23CN4CN(CN(C4)C2)C3)cc1,-1%,-11%
Cc1ccccc1NC1=C(Cl)C(=O)OC1NC(=O)c1ccccc1 (centres undefined),i,-4%
Cc1cccc(N(CC(=O)N2CCN(C)CC2)S(=O)(=O)c2ccccc2)c1,i,-7%
Cc1cc(C)c2sc(NC(=O)C3CC3)nc2c1,-1%,-9%
CCN(CC)c1ccc(CN(C(=O)Cc2coc3ccc(C)cc23)C2CCS(=O)(=O)C2)cc1 (centres undefined),-14%,-10%
COc1ccc(/C=C/C(=O)O)cc1S(=O)(=O)N1CCc2ccccc2C1,-15%,1%
CSc1cccc(NC(=S)Nc2cc(C)ccc2C)c1,i,6%
CCCCn1c(C(C)NC(=O)CCC)nc2ccccc21 (centres undefined),-3%,-1%
O=C(CSc1nccn1-c1ccc(F)cc1)NCc1ccc(F)cc1,i,-11%
O=C1NC(=O)N(c2ccc(F)cc2)C(=O)/C1=C/c1ccc(N2CCOCC2)cc1,-11%,9%
CCn1cc(S(=O)(=O)Nc2cccnc2)cn1,i,-9%
O=C(O)/C=C/C(=O)NC1CCS(=O)(=O)C1 (centres undefined),-2%,4%
CCOc1ccc(CC(=O)NCCc2csc(-c3ccc(C(F)(F)F)cc3)n2)cc1,-17%,-2%
CCC(C)NC(=S)N1CCN(C)CC1 (centres undefined),-3%,-7%
CC(C)CN1CCC(=O)N(CCN=[N+]=[N-])CC1,-15%,-5%&-7%
COCCNC(=O)C1(C)CCCN(C(=O)COc2ccccc2)C1 (centres undefined),-2%,4%
Cc1nn(-c2ccccc2)c(N)c1N=Nc1ccccc1,?,-22%
CC(C)[C@H](NC(=O)c1ccccc1)C(=O)OCC(=O)N1CCCCCC1,-3%,-7%
CCN1CCCC1CNC(=O)c1ccc2c(c1)NC(=O)/C(=C\c1ccccc1Cl)S2 (centres undefined),-12%,-26%
COc1ccc(NC(=O)C2=C(C)Nc3ncnn3C2c2sccc2C)cc1 (centres undefined),-2%,-13%
Cc1[nH]c(=O)c(C#N)c(C)c1CSc1ncccn1,-10%,-12%
COc1ccc(-c2nn(-c3ccccc3)cc2/C=C/C(=O)OCC(=O)Nc2cccc(C#N)c2)cc1,i,-26%
Cc1ccccc1-n1nnnc1Sc1nnnn1-c1ccccc1,.,?
CCN(CC)c1ccc(NC(=O)Cn2cc3c(n2)CCC(C)C3)c(C)c1 (centres undefined),-21%,-9%
O=C(O)Cc1sc(-c2cccnc2)nc1-c1ccc(Br)cc1,-2%,-9%
CCOc1ccccc1-n1nnnc1SCc1nc2ccccc2s1,-18%,-4%
Cn1c(=O)c2c(nc(NCCNC(=O)c3ccco3)n2Cc2ccccc2F)n(C)c1=O,-7%,1%
CC(C)CCn1c(=O)c2sccc2n2c(CCCC(=O)NC3CCC(C)CC3)nnc12 (centres undefined),-14%,-5%
O=C(NCC1CC1)Nc1cccc(C(F)(F)F)c1,-9%,-14%
COc1ccccc1N1CCN(S(=O)(=O)CCNC(=O)C(C)Oc2ccccc2)CC1 (centres undefined),i,-19%
O=c1c2ccccc2nc(SCc2ccccc2)n1CC1CCCO1 (centres undefined),i,0%

# The closing two entries of the part before are carried over, then new ones follow:
structure,VACV mCherry inh,VACV Venus inh
COc1ccccc1N1CCN(S(=O)(=O)CCNC(=O)C(C)Oc2ccccc2)CC1 (centres undefined),i,-19%
O=c1c2ccccc2nc(SCc2ccccc2)n1CC1CCCO1 (centres undefined),i,0%
CCCSc1ncc(Cl)c(C(=O)Nc2c(C(=O)c3ccc(F)cc3)oc3ccccc23)n1,-12%,-11%
COCCCNc1ccc([N+](=O)[O-])cc1C(=O)Nc1cccc(C)n1,-5%,3%
O=C(O)c1ccc(NC(=O)c2ccco2)c(NC(=O)c2ccco2)c1,i,-4%
O=C(NCCc1c[nH]c2ccccc12)C1CCN(c2nnc(N3CCCC3=O)s2)CC1,.,-16%
CC(C)(C)c1ccccc1OCC(=O)NCCCn1ccnc1,-3%,2%
O=C(CSc1nnc2ccc3ccccc3n12)N1CCOCC1,-13%,-1%
Cc1ccc(NC(=O)CCn2nnc3ccccc32)cc1,-14%,-11%
O=C(c1cc(Cl)ccc1O)N1CCN(S(=O)(=O)c2cccs2)CC1,-20%,-5%
CCCCOCCCNC(=O)C[C@@H]1C[C@@]2(C(=O)OCC)CCCC=C2N(Cc2cccc3ccccc23)C1=O,-2%,-17%
C/C(=N\NC(=O)c1cccc2ccccc12)c1ccccn1,?,-10%
Oc1cccc(Nc2ccccc2)c1,i,-13%
COc1ccc(C(=O)c2coc(-c3ccccc3C(=O)O)c2C(=O)O)cc1,i,-2%
CCC(=O)N1CCc2cc(Br)cc(S(=O)(=O)CCC(=O)N3CCN(c4ccccc4F)CC3)c21,-4%,-13%
CCc1cc2c(-c3ccccc3)cc(=O)oc2cc1OCC(=O)NCC1CCC(C(=O)O)CC1 (centres undefined),-2%,-9%
COc1ccccc1N1CCN(c2nc3ccccn3c(=O)c2C=O)CC1,-21%,-9%
CCOC(=O)CNC(=O)N1Cc2cc(-c3ccc(OC)cc3)ccc2-n2nncc2C1,0%,-3%
Cn1c(CC(=O)Nc2ccc(Cl)c(Cl)c2)n[nH]c1=S,i,-3%
CC(CN1CCOCC1)OC(=O)Cc1ccccc1 (centres undefined),-10%,-5%
CCOC(=O)c1nnc(-c2ccc(C)cc2)nc1N1CCSCC1,i,?
CC(C)(C)S(=O)(=O)c1cnc(N2CCCC2)nc1N,i,-14%
Cc1ccc(CNC(=O)c2nc(SCc3ccc(F)cc3)ncc2Cl)cc1,-5%,-15%
CCn1nnnc1-c1ccc(OC)c(S(=O)(=O)Nc2ccc(C)c(C)c2)c1,-17%,-17%
COc1cccc(C2=NN(C(=O)c3ccc(C)o3)C(O)(C(F)(F)F)C2)c1 (centres undefined),-1%,-26%
CC(C)C[C@H](CO)N(Cc1ccccc1)S(=O)(=O)N(Cc1ccccc1)[C@@H](CO)CC(C)C,14µM*!,?
CCn1c(SCC(=O)NC2CCCc3ccccc32)nnc1-c1cccs1 (centres undefined),.,-19%
Cc1nnc(SCc2cc(=O)[nH]c(=S)[nH]2)s1,i,-5%
CCOc1ccc(NC(=O)c2c(NC(=O)CN3CCCC3)sc3c2CCC3)cc1,i,-3%
Cc1sc2c(c1C)c(=O)n(-c1ccc(Cl)cc1)c(=O)n2Cc1cc(=O)n2cc(Br)ccc2n1,-16%,3%
Cc1ccc2c(c1)C(O)(CC(=O)c1cccnc1)C(=O)N2 (centres undefined),.,-2%
CCOCCn1c(N2CCN(c3ccc(OC)cc3)CC2)nc2c1c(=O)n(C)c(=O)n2C,.,-3%
O=C(CC1(O)C(=O)Nc2cc(Cl)cc(Cl)c21)c1ccccc1O (centres undefined),.,-13%
O=C(COC(=O)c1nc(Cl)ccc1Cl)NNC(=O)c1cccs1,-12%,-3%
CCOC(=O)/C=C1\SCC(=O)N1CC(=O)NC(c1ccccc1)c1ccccc1,i,-11%

# Source: PubChem (National Center for Advancing Translational Sciences (NCATS))
